Screening results (PubChem BioAssay)
LANA-H2B inh = blocks KSHV LANA binding to histone H2A/H2B | Q9QR71 | cell-free LANA-H2A/H2B peptide, fluorescence polarization | inhibition, % (test concentration not listed) | hit rate 0.6% among 320,000; in the data active means inhibition mostly above about 10%, no sharp cut-off; inactive means mostly below about 6.7%;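 further: stock transfer was 7.5 nL into about 10 µL; 0% = median of vehicle wells and 100% = median of positive control wells; one replicate is shown; the record names a cut of 25% in any replicate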
T cruzi repl = T. cruzi replication inhibition; T. cruzi beta-gal in NIH3T3, luminescence, 90 h; inhibition, % (test concentration not listed); hit rate 1.4% among 300,000;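 active means mean inhibition across valid replicates above about 55%, limit read from the data; inconclusive means mean below that limit but half or more replicates reach it; inactive means mean below it, under half of replicates reach it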;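 further: signal also drops with host cell toxicity which is not excluded here; 0% = plate median of DMSO wells and 100% = zero luminescence signal; higher percent means less beta-gal luminescence so fewer parasites; stock transfer was 50 nL into about 50 µL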
Beta cell apopt = blocks beta cell apoptosis; INS-1E cytokine-induced death, ATP luminescence, 48 h; percent of positive-control rescue, neutral wells zero; protection from apoptosis, % (no concentration beside the values); hit rate 0.8% among 300,000;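 active means all replicates at 75% or more, or half of them and the mean; inconclusive means half reach 75% but not the mean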;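 further: 0% = cytokine-treated negative control wells and 100% = positive control rescue; higher means more ATP so stronger rescue from cytokine killing; wells of about 40 µL received 100 nL stock; the first replicate is given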
Beta2AR agonist = agonists of human beta-2 adrenergic receptor inducing internalization | P07550 | AID 504454 | Am2.2-beta2AR cells, FAP receptor internalization, flow cytometry; reference of the scale not given here | hit rate 0.43% among 340,000 | response, % (no concentration beside the values);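 active means response above a set limit, near 3 SD of response in nonfluorescent compounds, cut at about 42% in these data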;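 further: stock transfer was 100 nL into about 11 µL; a reference agonist was the positive control; negative values mostly stem from fluorescent compounds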
Target sequence (P07550 whole entry, looked up): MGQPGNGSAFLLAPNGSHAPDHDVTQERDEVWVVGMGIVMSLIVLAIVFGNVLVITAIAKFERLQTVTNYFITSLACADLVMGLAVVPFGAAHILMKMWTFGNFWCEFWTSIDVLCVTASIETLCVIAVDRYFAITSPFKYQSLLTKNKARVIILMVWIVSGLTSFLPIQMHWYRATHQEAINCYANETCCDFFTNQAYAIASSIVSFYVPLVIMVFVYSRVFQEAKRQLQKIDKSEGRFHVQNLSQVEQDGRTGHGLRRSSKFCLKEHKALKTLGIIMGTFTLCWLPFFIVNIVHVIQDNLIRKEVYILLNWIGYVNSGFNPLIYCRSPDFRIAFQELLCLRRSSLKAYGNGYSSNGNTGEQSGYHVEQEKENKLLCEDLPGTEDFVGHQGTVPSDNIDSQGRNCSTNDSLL
Calb FLC = C. albicans growth modulation with fluconazole. hit rate 0.57% among 300,000. C. albicans CaCi-2 (fluconazole-resistant clinical isolate) + fluconazole, Alamar Blue growth, 48 h. growth inhibition, % (no concentration beside the values);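 active means most replicates above 75%; inconclusive means exactly half above 75%; inactive means most below 75%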;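 further: all wells also contain fluconazole at 8 µg/ml as a sub-toxic cotreatment; 0% = median of DMSO wells and 100% = median of geldanamycin control wells; wells of about 8 µL received 7.5 nL stock; the first replicate is given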
UCH37 DUB inh = human UCH37 deubiquitinating enzyme inhibition; purified proteasome/UCH37, Ub-AMC cleavage fluorescence; inhibition, % (test concentration not listed); AID 588478; hit rate 0.33% among 330,000;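 active means mean of two replicates above 20%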;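 further: 0% = compound-free wells with enzyme and 100% = wells lacking proteasome; stock transfer was 100 nL into about 20 µL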
Target sequence (Q9Y5K5 whole entry, looked up): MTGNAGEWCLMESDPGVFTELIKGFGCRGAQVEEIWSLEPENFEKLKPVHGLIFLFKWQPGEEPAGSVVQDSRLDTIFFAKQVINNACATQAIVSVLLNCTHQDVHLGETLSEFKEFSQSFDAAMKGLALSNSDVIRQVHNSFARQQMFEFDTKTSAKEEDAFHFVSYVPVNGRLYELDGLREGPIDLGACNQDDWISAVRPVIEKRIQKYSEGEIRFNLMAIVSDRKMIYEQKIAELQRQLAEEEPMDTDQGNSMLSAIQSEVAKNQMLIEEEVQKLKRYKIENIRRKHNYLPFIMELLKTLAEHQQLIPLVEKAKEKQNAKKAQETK
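Material: human UCH37 enzyme supplied as purified proteasome complex / Amount: 0.15 nM proteasome as dispensed / Buffer or medium: pH 7.4 Tris-HCl (50 mM) with ovalbumin, ATP-MgCl2, DTT / Times: preincubation 30 min, reaction 25 min, room temperature / Technique: AMC fluorescence from Ub-AMC cleavage, excitation 355 nm, emission 460 nm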
A1 inh = inhibitors of the anti-apoptotic protein A1, read as caspase activation; MEF A1-2A-BIM cells, Caspase-Glo 3/7 luminescence, 3 h; percent of clofoctol response, vehicle zero; caspase activation, % (no concentration beside the values); hit rate 0.066% among 330,000; AID 2462;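 active means over half of replicate activation scores above 10%, or exactly half above 10 with the replicate mean above 10; inconclusive means replicate mean below 10 yet half the replicates above 10; inactive means over half of replicates below 10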;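 further: wells of about 30 µL received 50 nL stock; many hits fall short of the cut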
RanGTP-Imp inh = inhibitors of RanGTP-importin-beta interaction, primary screen, biochemical, FRET, CFP-Ran, YFP-importin-beta, homogeneous; cell-free CFP-Ran/YFP-importin-beta FRET ratio; inhibition, % (concentration not given with the values); hit rate 1.1% among 300,000;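 active means most replicates above 15%; inconclusive means exactly half above 15%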;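 further: 0% = DMSO wells and 100% = Ran loaded with GDP instead of GTP; wells of about 40 µL received 100 nL stock; the first replicate is given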
* = called active by the depositor; ? = inconclusive; / = no result given.

SMILES | LANA-H2B inh | T cruzi repl | Beta cell apopt | Beta2AR agonist | Calb FLC | UCH37 DUB inh | A1 inh | RanGTP-Imp inh
CC1CCC2(CC1)NC(=O)N(CC(=O)N1CCc3ccccc3C1)C2=O (configuration not stated) | 3.0 | -5 | -6 | 2 | -8 | -0.4 | 0.4 | 1.5
Cc1ccccc1CNC(=O)C1CCC(=O)N(Cc2cccc(F)c2)C1 (configuration not stated) | -5.4 | 0 | 2 | 0 | 5 | 0.4 | 0.7 | 1.7
Cn1c(CNC(=O)CCNC(=O)c2cccc(Br)c2)cc(=O)n(C)c1=O | -5.2 | -13 | -4 | 1 | 0 | 4.3 | -0.8 | 5.8
C=CCn1c(SCC(=O)c2cc(C)n(CCOC)c2C)nc2sc(C)c(C)c2c1=O | 1.8 | 34 | 7 | 17 | -9 | -4.4 | 0.2 | -1.4
CCc1nnc(NC(=O)CSc2nnc(CNc3ccc(OC)cc3)n2CC)s1 | -3.8 | -5 | 1 | 6 | 36 | -0.6 | -0.4 | -2.6
CCOC(=O)C1C(=O)NC(N2CCN(Cc3ccccc3)CC2)=NC1c1ccccc1 (configuration not stated) | -4.9 | -16 | -3 | 2 | 44 | -1.1 | 0.5 | 2.3
CC(C(=O)N1CCN(c2ccc([N+](=O)[O-])cc2)CC1)N1C(=O)C2CC=CCC2C1=O (configuration not stated) | -4.1 | 2 | 6 | -2 | 27 | 11 | -0.1 | -0.1
O=C(N/N=C/c1ccccn1)c1c[nH]c2ccccc12 | -0.9 | -11 | 3 | -1 | -8 | / | -1.0 | -1.4
Cc1[nH]c2ccccc2c1C(=O)C(=O)N(C)C1CCCCC1 | -1.7 | 3 | -1 | 2 | -4 | 4.7 | -0.4 | -0.4
CCCC(=O)NCCc1cc2cc(C)c(C)cc2[nH]c1=O | / | -5 | / | -3 | 23 | -11 | / | 4.0
COc1ccccc1N1CCN(C(=O)c2c(-c3c(F)cccc3Cl)noc2C)CC1 | / | 6 | / | 0 | 0 | 3.2 | / | 1.2
CCN(C(=O)COC(=O)CNS(=O)(=O)c1ccccc1)c1ccccc1 | -0.5 | -9 | -6 | -2 | -11 | 2.5 | -0.2 | 0.0
CC1CN(C(=O)COC(=O)c2ccc(C#N)cc2)CC(C)O1 (configuration not stated) | -1.4 | -4 | -7 | 0 | -2 | / | -0.2 | 0.8
COCC(=O)N1CCN(c2ccc([N+](=O)[O-])cc2)CC1 | -1.7 | 0 | -1 | 8 | 5 | 12 | -0.4 | 3.3
COc1ccc(OC)c(NC(=O)N2CCCC(CNS(=O)(=O)c3cccs3)C2)c1 (configuration not stated) | -3.3 | 3 | 5 | 15 | 0 | -0.4 | -0.4 | -2.9

The final 5 entries of the section before come first, to join the parts.
SMILES | LANA-H2B inh | T cruzi repl | Beta cell apopt | Beta2AR agonist | Calb FLC | UCH37 DUB inh | A1 inh | RanGTP-Imp inh
COc1ccccc1N1CCN(C(=O)c2c(-c3c(F)cccc3Cl)noc2C)CC1 | / | 6 | / | 0 | 0 | 3.2 | / | 1.2
CCN(C(=O)COC(=O)CNS(=O)(=O)c1ccccc1)c1ccccc1 | -0.5 | -9 | -6 | -2 | -11 | 2.5 | -0.2 | 0.0
CC1CN(C(=O)COC(=O)c2ccc(C#N)cc2)CC(C)O1 (configuration not stated) | -1.4 | -4 | -7 | 0 | -2 | / | -0.2 | 0.8
COCC(=O)N1CCN(c2ccc([N+](=O)[O-])cc2)CC1 | -1.7 | 0 | -1 | 8 | 5 | 12 | -0.4 | 3.3
COc1ccc(OC)c(NC(=O)N2CCCC(CNS(=O)(=O)c3cccs3)C2)c1 (configuration not stated) | -3.3 | 3 | 5 | 15 | 0 | -0.4 | -0.4 | -2.9
O=C(COc1ccccc1Cl)N1CCN(C(=O)c2ccco2)CC1 | 3.5 | -12 | -1 | -3 | 2 | -0.9 | 1.0 | 1.9
CCSc1nc(N2CCOCC2)c2c(c1C#N)CC(C)(C)N(C)C2 | 0.8 | 30 | / | -3 | -4 | 3.1 | 0.0 | -3.1
O=C(NC1CCCC1)C1CCN(S(=O)(=O)c2ccccc2)CC1 | 3.0 | 0 | -5 | 0 | 7 | 1.1 | -0.1 | -2.9
COc1ccc(C)cc1N(C)C(=O)Cc1c(C(=O)O)n(C)c2ccccc12 | 4.1 | 9 | 0 | -18 | 14 | 1.2 | 1.1 | 0.6
Cc1cc(C)c(C#N)c(N2CCN(Cc3ccc4c(c3)OCO4)CC2)n1 | -1.9 | 4 | -3 | 3 | -19 | 3.3 | 0.8 | -0.1
Cn1c(=O)c2[nH]c(-c3cccnc3)nc2n(C)c1=O | 3.7 | -5 | 4 | -10 | -9 | 2.9 | 0.8 | -3.0
CCOc1ccc(OCCCC(=O)N(CC)CC(=O)Nc2c(F)cccc2F)cc1 | 36* | / | 0 | -4 | / | 0.9 | 0.0 | /
CCc1nc(N)c(C#N)c(-c2ccncc2)c1C | 3.2 | -7 | -3 | -2 | -4 | -21 | 1.2 | -0.5
Cc1cccc(NC(=O)CSc2nnc(C)c(=O)n2N)c1C | 1.7 | -5 | -14 | 2 | 6 | / | 0.0 | 1.4
COc1ccc(C)cc1NC(=O)CN1C(=O)COc2ccc(S(=O)(=O)N3CCOCC3)cc21 | 0.7 | 0 | 1 | 2 | 0 | 2.7 | 0.3 | -1.9
CCC(=O)N1CCc2cc(S(=O)(=O)CCC(=O)NCc3ccc(C)cc3)ccc21 | -0.8 | 14 | -2 | -5 | 4 | 0.6 | 0.0 | -1.3
Cc1ccc(OCC(=O)N/N=C2\CCOc3c(C)cccc32)cc1 | 5.4 | -4 | -1 | -1 | -12 | / | -1.5 | 2.8
COc1ccc2cc(C(=O)NC3CCCCC3)c(=O)oc2c1 | / | 5 | / | -2 | 5 | -137 | / | -1.1
COC(=O)CCCC1=CC2=CC(=O)C(C)(OC(=O)c3cccs3)C(=O)C2=CN1CCCOC(C)C (configuration not stated) | -0.4 | 21 | -11 | 8 | 14 | 3.6 | 0.7 | -8.2
Cc1ccccc1OCC(=O)Nc1cccc(NC(=O)c2ccco2)c1 | 2.0 | -7 | 5 | -7 | -3 | 4.3 | 0.0 | -0.2
CC1=C/C(=C/N(C)C)C(=O)O1 | -1.8 | 11 | -11 | 5 | -21 | 3.4 | 0.7 | 1.5
O=C(Nc1ccccc1)c1nnsc1S(=O)(=O)c1ccc(Cl)cc1 | 1.7 | -17 | 5 | -12 | ? | 3.9 | -0.4 | -2.0
O=C(NCc1ccc2c(c1)OCO2)c1c[nH]c2ccc(S(=O)(=O)N3CCOCC3)cc2c1=O | 0.5 | 10 | -4 | -10 | 3 | 1.4 | 0.0 | 3.6
NNC(=O)c1nnn(-c2nonc2N)c1-c1cccs1 | -3.0 | -3 | -6 | -6 | -15 | 0.6 | 0.0 | -3.8
Cc1nn(-c2ccccc2)c2[nH]c(=O)c(CNCc3ccc4c(c3)OCO4)cc12 | -1.4 | 6 | 1 | 3 | -9 | 3.8 | 1.0 | -4.8
CCCc1[nH]n(-c2nc3ccccc3s2)c(=O)c1C=NCCN1CCOCC1 | -0.2 | 15 | -11 | -14 | -10 | 3.1 | -12 | 1.8
COc1ccc(Cl)cc1NC(=O)CCn1cnc2ccccc2c1=O | 1.9 | 2 | -4 | -1 | 19 | 3.0 | 1.0 | 1.5
COc1cc2cc(C(=O)N(C)C3CCS(=O)(=O)C3)[nH]c2cc1OC (configuration not stated) | -2.4 | -14 | -3 | -1 | 32 | -78 | 0.4 | -2.2
CCc1ccc(Nc2nnc(SC3CCOC3=O)s2)cc1 (configuration not stated) | -0.8 | 2 | -17 | 2 | -3 | 7.0 | 1.1 | -3.2
CC(C)CSc1nnc2c3ccccc3n(C)c2n1 | 2.6 | 3 | 4 | 6 | -2 | 1.7 | -3.5 | 2.5
CC1CCN(C(=O)CCCNC(=O)Cn2cnc3sc4c(c3c2=O)CCCC4)CC1 | 4.4 | -6 | 5 | -18 | 6 | 4.9 | 2.8 | -4.8
O=C(COc1ccccc1)NCC(=O)Nc1ccc(S(=O)(=O)NCc2ccco2)cc1 | -1.3 | 2 | -6 | 3 | 1 | -1.2 | 1.4 | -0.9
CCCCn1c(N)c(N(CC(C)C)C(=O)CN(C)S(=O)(=O)c2ccc(F)cc2)c(=O)[nH]c1=O | -2.1 | -3 | / | 3 | 5 | -5.5 | 0.4 | 6.8
Cc1nc2c(C(=O)NCc3ccc4c(c3)OCO4)c[nH]n2c(=O)c1Cl | 0.7 | 1 | -9 | 9 | 12 | -1.0 | -0.4 | -0.7
COCCN(C(=O)COC(=O)Cc1coc2cc3c(cc12)CCC3)c1c(N)n(Cc2ccccc2)c(=O)[nH]c1=O | -0.7 | 3 | -9 | 5 | 11 | -1.5 | -0.2 | 0.9
CC1CCCCN1C(=O)CSc1nc(C2CC2)nc2ccccc12 (configuration not stated) | -0.8 | 0 | 0 | 3 | -6 | 3.2 | -0.4 | -0.4
CCCCC(CC)CNC(=O)c1ncn[nH]1 (configuration not stated) | -2.3 | -9 | 3 | -1 | -59 | 0.1 | -0.7 | -2.9
CC(C)(C)C(=O)Nc1cccc(OC(F)(F)C(F)Cl)c1 (configuration not stated) | 32* | / | 5 | -4 | 0 | 3.0 | -0.3 | /
CCN(CC)c1ccc(NC(=O)CSC(=O)c2ccccc2)cc1 | -3.4 | / | -3 | 0 | / | 9.2 | -1.0 | /
COc1ccc(C2CC(O)(c3ccccc3)Oc3cc(OC)cc(OC)c32)cc1 (configuration not stated) | / | 25 | / | 1 | 11 | 0.0 | / | 2.0
Nc1nc(Cl)nc2c1ncn2C1CC(O)C(CO)O1 (configuration not stated) | 8.3 | 21 | 36 | 1 | 9 | 2.4 | 0.1 | 0.9
C/C(=N\NC(=O)c1cc(C)nc2ccccc12)c1ccco1 | -1.6 | -4 | 0 | -6 | 0 | / | -0.2 | 2.4
O=C(CCC1CC(=O)Nc2ccccc21)NCc1ccccc1 (configuration not stated) | 0.5 | -13 | -10 | -2 | -8 | 1.0 | 0.0 | 7.6
COc1cccc(CNc2nc3nc(C)cc(C)n3n2)c1 | 4.3 | -3 | -3 | -19 | -7 | -25 | -0.5 | 3.7
CC1CCCN(S(=O)(=O)c2cc(C(=O)NCc3ccco3)ccc2Cl)C1 (configuration not stated) | 0.5 | / | 4 | 8 | / | 0.1 | 0.6 | /
COc1ccccc1C1C(C(=O)c2cc3ccccc3o2)=C(O)C(=O)N1c1cc(C)on1 (configuration not stated) | 0.9 | -34 | 0 | 12 | 45 | 9.6 | 0.1 | 2.2
CN(C)c1ccc(/C=N/c2cc(-c3ccccc3)nn2-c2ccccc2)cc1 | -4.0 | 16 | 1 | 6 | 18 | / | -1.8 | 0.8
Cc1ccc(Cl)c(OC(=O)c2ccc(N3CCOCC3)c([N+](=O)[O-])c2)c1 | 2.8 | -16 | -1 | 0 | -2 | 5.2 | -0.4 | ?
